# Compound activity from PubChem BioAssay.
# HCMV UL50-53 inh = inhibitors of HCMV UL50-UL53 interaction, biochemical, HTRF; HCMV UL50-UL53 nuclear egress complex (human cytomegalovirus); normalized percent inhibition; inhibition, % (concentration not given with the values); 190,000 compounds, 0.15% hits;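 active means both replicates at 50% or more, plus weaker picks with an unusually low signal ratio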;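 further: stock transfer was 100 nL into about 20 µL; 0% = negative control wells and 100% = wells with untagged competitor protein; inactives centre near -12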
# GIV-Gai inh = inhibitors of GIV peptide binding to Galpha-i3, primary screen, biochemical, fluorescence polarization, FITC-GIV GBA peptide, rat Galphai3. 210,000 compounds, 0.42% hits. percent of control (FP), % (test concentration not listed). 90 min; stronger effect = lower value; scaled: aluminum fluoride 0%, vehicle 100%;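 active means replicate mean at 85% of control or lower, very high polarization wells dropped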;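 further: wells of about 15 µL received 100 nL stock; the first replicate is given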
# Target sequence (P08753 whole entry, looked up): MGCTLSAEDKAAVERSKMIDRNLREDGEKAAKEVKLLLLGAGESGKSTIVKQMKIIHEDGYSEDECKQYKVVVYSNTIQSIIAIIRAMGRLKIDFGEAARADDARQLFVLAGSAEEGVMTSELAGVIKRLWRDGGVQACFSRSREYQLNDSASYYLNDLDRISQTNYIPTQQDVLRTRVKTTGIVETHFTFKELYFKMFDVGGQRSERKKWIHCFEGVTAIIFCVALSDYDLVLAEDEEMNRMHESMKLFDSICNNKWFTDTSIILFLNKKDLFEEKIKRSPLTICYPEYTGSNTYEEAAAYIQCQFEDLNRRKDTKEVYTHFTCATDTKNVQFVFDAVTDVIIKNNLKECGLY
# Sa growth 42C = S. aureus growth inhibition at 42 and 30 °C, primary screen, LtaS inhibitor project, RN4220, two temperatures; relative growth, % (no concentration beside the values); AID 720641, 2013; OD600, 20 h, 42 °C; stronger effect = lower value; 170,000 compounds, 0.53% hits;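 active means growth at 42 °C up to 50% and 20 or more points under that at 30 °C, or under 10% at both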;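 further: 300 nL library stock went into each well; scaled to the means of positive and negative controls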
# Sa growth 42C second temp = second read-out of Sa growth 42C, no call of its own (marks repeat the call); relative growth, %; measured here: growth at 30 °C;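 optical density after 20 h as mean of two plates; 100% = untreated growth and lower means inhibition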
# * marks the source's active call; other numbers are inactive results; . = not tested or not shown; & = joins results of further samples. This is a random part of the collection; 0.8% or so of the library scored in one or more.
# The first four entries, ahead of the listing:
SMILES,HCMV UL50-53 inh,GIV-Gai inh,Sa growth 42C,Sa growth 42C second temp
NS(=O)(=O)c1ccc(NC(=O)C(Sc2ccccc2)c2ccccc2)cc1 (stereo not drawn),1,.,113,82
CCC(=O)Nc1nnc(S(=O)(=O)N(C)Cc2ccccc2)s1,-21,98,105,81
O=C(COc1ccccc1)N1N=C(c2ccc(Cl)cc2)CC1(O)C(F)(F)F (stereo not drawn),-9,102,.,.
Cc1ccc(CN2CCSc3ccc(C(=O)Nc4cc(C)cc(C)c4)cc32)cc1,-32,103,84,84

# The list itself, from the first entry:
SMILES,HCMV UL50-53 inh,GIV-Gai inh,Sa growth 42C,Sa growth 42C second temp
NS(=O)(=O)c1ccc(NC(=O)C(Sc2ccccc2)c2ccccc2)cc1 (stereo not drawn),1,.,113,82
CCC(=O)Nc1nnc(S(=O)(=O)N(C)Cc2ccccc2)s1,-21,98,105,81
O=C(COc1ccccc1)N1N=C(c2ccc(Cl)cc2)CC1(O)C(F)(F)F (stereo not drawn),-9,102,.,.
Cc1ccc(CN2CCSc3ccc(C(=O)Nc4cc(C)cc(C)c4)cc32)cc1,-32,103,84,84
Cc1oc(-c2ccc(Cl)cc2)cc1C(=O)Nc1ccccc1,-28,105,97,90
Cn1cc(C(=O)NCC2CCCO2)c2[nH]c(=O)n(-c3ccccc3)c(=O)c21 (stereo not drawn),-23,103,.,.
O=C(O)/C=C\C(=O)NC1CCN(Cc2ccccc2)CC1,-41,101,84,83
CC(=O)N1c2ccc(S(=O)(=O)N3CCCCC3)cc2CC1C(=O)Nc1nc2ccccc2s1 (stereo not drawn),18,102,.,.
COP1(=S)C2=C(N3CCOCC3)CC(C)(C)CC2=Nc2c1c(C)nn2-c1ccccc1 (stereo not drawn),8,.,106,93
O=C(OC1CCCCC1)C1CCCN1S(=O)(=O)c1cccc2nsnc12 (stereo not drawn),-70,.,95,92

# Next section (two carried over from the part before).
SMILES,HCMV UL50-53 inh,GIV-Gai inh,Sa growth 42C,Sa growth 42C second temp
COP1(=S)C2=C(N3CCOCC3)CC(C)(C)CC2=Nc2c1c(C)nn2-c1ccccc1 (stereo not drawn),8,.,106,93
O=C(OC1CCCCC1)C1CCCN1S(=O)(=O)c1cccc2nsnc12 (stereo not drawn),-70,.,95,92
CCC1Oc2ccc(Cl)cc2N(CC(=O)N2CCN(c3c(C)n(C)c(=O)n(C)c3=O)CC2)C1=O (stereo not drawn),-24,104,.,.
CCOc1ccc(CCNC(=O)C2CC(=O)OC2c2ccc(OC)c(OC)c2)cc1 (stereo not drawn),.,103,94,82
O=C(c1ccc2c(c1)CCN2S(=O)(=O)c1ccccc1)N1CCN(c2ccccc2F)CC1,-34,99,102,86
O=C(OCc1cn2cc(Cl)ccc2n1)c1cccc(-n2cnnn2)c1,-18,.,75,91
CCOc1nc(NC(=O)NS(=O)(=O)Oc2ccc(Cl)cc2)nc(-c2ccccc2)n1,-26,102,105,93
CCOc1ccc(CCNC(=O)C2Cc3ccccc3N2C(=O)CC)cc1OCC (stereo not drawn),.,98,104,86
O=C(NCc1ccccc1F)c1cc(=O)c2ccccc2o1,-52,.,87,95
COC(=O)c1ccc(CN(Cc2ccc(C(=O)OC)o2)C(C)(C)C)o1,.,101,100,82
O=C(Nc1cc(Cl)cc(Cl)c1)Nc1cc(-c2ccccc2)[nH]n1,5,104,6,1
CN(C)CCN1C(=O)c2ccccc2N(C)c2ccccc21,-36,98,86,86
COc1ccc(Nc2cc(C)c3cc(NC(=O)c4ccc(N(C)C)cc4)ccc3n2)cc1,-30,101,.,.
O=c1[nH]c2cc3c(cc2cc1C(c1nnnn1C1CCCC1)N1CCc2ccccc21)OCCO3 (stereo not drawn),-63,157,91,88
Cc1c(S(=O)(=O)N2CCN(c3cc(-c4ccc(F)cc4)ncn3)CC2)cnn1C(F)F,-21,103,.,.
O=C(CCCCn1c(=O)[nH]c2ccsc2c1=O)N1CCN(c2cccc(Cl)c2)CC1,-13,104,99,51
Cc1cc(C)c(S(=O)(=O)NCCc2cc3ccc(C)cc3[nH]c2=O)c(C)c1,-7,107,115,87
COc1ccc(NC(=O)c2snnc2C)cc1,-7,105,101,97
CC(CNC(=O)c1ccc(Cn2c(SCc3ccccc3)nc3cccnc32)cc1)c1ccccc1 (stereo not drawn),.,100,120,90
COc1ccccc1NCC(F)(F)F,-15,.,99,88
CCc1ccccc1N(C)C(=O)c1nn(-c2ccc(OC)cc2)c(=O)c2c1c1ccccc1n2C,-6,105,106,84
Cc1ccc(COC2CN(C(=O)c3ccc(C)cc3)C2)cc1,5,105,.,.
O=C(c1cccs1)c1no[n+]([O-])c1C(=O)c1cccs1,-29&9,106,64,43
Cc1ccc(CNCCSc2nnnn2C)s1,4,99,.,.
COc1ccc(C(=O)CN2C(=O)N(c3cc(C)ccc3C)S(=O)(=O)c3ccccc32)cc1,.,104,114,99
O=C(O)c1cc(=O)[nH]c2ccc(S(=O)(=O)Nc3ccc(F)cc3)cc12,-30,.,90,97
CCc1ccc(NC(=O)CC2C(=O)N(c3cccc(C)c3)C(=O)N2Cc2ccco2)cc1 (stereo not drawn),.,109,120,105
CN(Cc1ccccc1)C(=O)c1cccs1,-12,.,98,85
COc1cc(OC)cc(C(=O)Nc2cc(-c3nc4cc(Cl)ccc4o3)ccc2Cl)c1,-13,96,109,85
C[C@H](NS(=O)(=O)c1cccc2nsnc12)C(=O)Nc1ccc2c(c1)CCC2,-26,.,92,85
COc1cc(C(=O)N2CCc3c([nH]c4ccccc34)C2c2ccc(F)cc2)cc(OC)c1OC (stereo not drawn),.,109,108,105
Cc1nc2cccnc2n1-c1cccc(C(=O)N2CCN(c3cccc(Cl)c3)CC2)c1,.,108,94,61
COc1ccccc1/C=C/c1nc(C#N)c(N(C)C)o1,-47,100,109,88
Cc1ccc(-n2ncc(C(=O)NCCN3CCN(C)CC3)c2C2CCN(C(=O)OC(C)(C)C)CC2)cc1C,.,111,115,93
COc1ccc(CNC(=O)c2nc(SC(C)C)ncc2Cl)cc1,13,100,94,91
CCOc1ccc(NC(=O)CCNS(=O)(=O)c2cccc3nsnc23)cc1,-47,101,101,81
CCCN1C(=O)c2c(C(=O)Nc3ccccc3CC)ncn2CC1(C)C(=O)NCc1ccccc1 (stereo not drawn),-8,108,.,.
CC1=C(C(=O)Nc2nc3ccc(Br)cc3s2)C(c2ccc3c(c2)OCO3)C2=C(CC(C)(C)CC2=O)N1 (stereo not drawn),-21,99,.,.
Cc1ccc(-c2cc(C(F)(F)F)c(C#N)c(SCC(=O)O)n2)cc1,-63,108,127,100
Cc1cccc(NC(=O)CCS(=O)(=O)c2ccc3c(c2)n(C)c(=O)c(=O)n3C)c1C,12,108,91,95
Cc1cc(NC2CCCC2)n2nc(C)c(-c3ccc(F)cc3)c2n1,-16,108,.,.
NC(=NC(=O)c1ccc(OCC(F)(F)F)nc1)c1ccc(Cl)cc1,-37,103,81,68
COc1ccc(S(=O)(=O)c2c(SC)nn(CC(=O)Nc3ccc(C)c(Cl)c3)c2N)cc1,.,106,126,87
CCOC(=O)CSc1nc2cc(Cl)ccc2n1C(C)C,0,108,101,98
S=c1[nH]c(=S)c2cnc(N3CCN(c4ccccc4)CC3)nc2[nH]1,-33,103,97,69
Cc1cc(C)c2c(N)c(C(=O)N3CCC(Cc4ccccc4)CC3)sc2n1,-15,.,85,92
Cc1[nH]c2ccccc2c1CCNC(=O)NC(=O)c1ccc(C(F)(F)F)cc1,-7,.,103,80
CCCCOn1c(C)c(C(=O)OCC)c2c3no[n+]([O-])c3ccc21,-27,100,87,80
Cc1nnc(SCCn2c(C)csc2=O)n1C,-2,.,114,88
O=[N+]([O-])c1c(Nc2ccc(Br)cc2)cc(N2CCCCCC2)c2nonc12,-4,105,.,.
COc1ccccc1NC(=O)C1=C(C)Nc2c(C(=O)Nc3cccc(C)c3)cnn2C1c1ccccc1C (stereo not drawn),.,100,126,91
CCOC(=O)N1CCN(CC(=O)c2ccc3c(c2)CCN3)CC1,-7,104,100,92

# Following part
SMILES,HCMV UL50-53 inh,GIV-Gai inh,Sa growth 42C,Sa growth 42C second temp
CCOc1ccc(NC(=O)CN2CCCN(Cc3cccc(C)c3)S2(=O)=O)cc1,-21,100,.,.
CC(Sc1nc2ncccc2[nH]1)C(=O)Nc1ccc2c(c1)OCCO2 (stereo not drawn),6,103,.,.
CCOc1ccc(OCc2ccc(C(=O)NC(C)C)o2)cc1,.,99,112,90
COc1ccc(NC(=O)C(=O)Nc2ccc3nc4n(c(=O)c3c2)CCCCC4)c(OC)c1,-10,102,97,90
COc1ccc(CN(C)C(C)C(=O)Nc2ccc3c(c2)OCCO3)c(OC)c1 (stereo not drawn),0,.,85,93
Cc1oc(-c2cccc(Cl)c2)nc1CN1CCC(C(=O)NCCC2=CCCCC2)CC1,5,96,104,97
Cc1ccc(-n2c(=O)c3c4c(sc3n(CC(=O)NCCc3ccc(S(N)(=O)=O)cc3)c2=O)CCC4)cc1C,-31,103,.,.
CSc1nc2nc3c(cc2c(=O)[nH]1)C(O)Oc1ccc(C)cc1-3 (stereo not drawn),-26,.,88,82
COc1ccc(NC(=O)CCc2nc3sc4c(c3c(=O)[nH]2)CCCCC4)c(OC)c1,-11,103,.,.
c1ccc(Nc2nnc(CSc3nc4ccccc4s3)s2)cc1,-34,102,88,84
CC(C)OCCCNC(=O)CCCn1c(SCC(=O)c2ccc(Br)cc2)nc2c(sc3ccccc32)c1=O,-44,96,109,92
Cc1cc(C)c2c(=O)cc(CSc3n[nH]c(C)n3)[nH]c2c1,.,95,102,88
CSc1ncc2c(n1)-c1ccccc1N(C)S2(=O)=O,-21,102,99,88
Cc1[nH]c2ccccc2c1C(=O)COC(=O)Cn1c(=O)oc2ccccc21,-22,.,76,90
Cc1ccc(CNC(=O)c2c(C)oc3ncnc(N4CCOCC4)c23)cc1,.,103,80,92
CN1CCC(OC(=O)c2cc3cc(Br)ccc3oc2=O)CC1,-29,.,93,99
Cc1ccc2nc(N3CCCC3)c(-c3noc(C)n3)cc2c1,-28,103,.,.
CCn1cnc2cc(NCc3ccccn3)ccc21,.,104,101,81
Cc1cc(C)nc(/N=C(/N)N2N=CCC2c2ccccc2)n1 (stereo not drawn),0,.,93,91
CC(=O)c1ccc(NC(=O)C2CCC(CNS(=O)(=O)c3cccc4nsnc34)CC2)cc1 (stereo not drawn),-37,110,98,90
O=C(Oc1ccc2c(c1)CCCC2)c1cccs1,-12,100,96,98
Cc1nnc(N2CCCC(C(=O)NCCc3ccc(Cl)cc3)C2)c2nn(-c3ccccc3)c(C)c12 (stereo not drawn),.,107,82,94
O=C(C1CCC1)N1CCCc2cc(S(=O)(=O)Nc3ccc(F)cc3)ccc21,.,105,65,101
N#CC(c1ccccc1)c1cn2cc(Cl)ccc2n1 (stereo not drawn),6,109,98,93
COCCN1C(c2ccccc2)=CC(=C2C(=O)N(C)C(=O)N(C)C2=O)C2=C1CCCC2,-11,107,98,100
CCc1ccc(NC(=O)CSc2nc3c(c(=O)[nH]2)CN(Cc2ccc(C)cc2)CC3)cc1,4,107,95,90
CCOC(=O)C1=C(Nc2ccc(Cl)cc2)C(=O)N(C(C)(C)C)C1,-37,107,96,77
COc1cc(C(=O)NC(=S)NC(N)=O)cc(OC)c1OC,-7,104,86,87
O=C(NNC1=NCCC1)c1c[nH]c2ccccc12,-19,.,94,89
O=C(C1CCN(S(=O)(=O)Cc2ccccc2)CC1)N1CCN(c2cccc(Cl)c2)CC1,-23,104,109,88
O=C(Cn1ccn2nc(-c3ccc4c(c3)OCO4)cc2c1=O)Nc1cc(F)ccc1F,-27,103,.,.
O=C(CSc1nnc2sc3ccccc3n12)c1ccc(Cl)cc1,-15,105,.,.
Cc1ccc(OC(C)C(=O)Nc2ccc3c(c2)NC(=O)CO3)cc1C (stereo not drawn),-25,104,.,.
COc1ccc(C2CCCN2C(=O)Nc2ccc(C)c(C)c2)cc1OC (stereo not drawn),-9,106,103,93
Cc1ccc(CNC(=O)C2CCN(S(=O)(=O)c3c(C)nn(C)c3C)CC2)cc1,.,102,82,86
COc1ccc(C2OC(=O)CC2C(=O)NCc2ccc(Cl)cc2)cc1OC (stereo not drawn),.,105,102,86
O=c1[nH]snc1N1CCCCC1,.,103,119,75
Cc1ccc(Nc2ncc(C(=O)Nc3ccc(F)cc3)c3ccccc23)cc1Cl,-15,101,.,.
COc1cccc(CN2C(=O)c3ccccc3C2C(=O)NCC2CCCO2)c1 (stereo not drawn),-29,102,87,79
O=c1[nH]c2c(s1)C=Nc1cc3ccccc3cc1N2,-36,59*,107,83
O=C(c1cccs1)N1N=C(c2ccccc2)CC1c1ccc(Cl)cc1 (stereo not drawn),-10,105,.,.
O=C(CSCc1ccccc1)NC1CC2CCC1C2 (stereo not drawn),-6,99,99,100
COC(=O)c1cc(S(=O)(=O)N2CCCCC2)c[nH]1,.,105,91,82
COc1ccc(CNC(=O)C2CCN(Cc3cn(C)c4ccc(OC)cc34)CC2)cc1,-4,101,.,.

# Look-ups from the list:
# Result for `c1ccc(Nc2nnc(CSc3nc4ccccc4s3)s2)cc1` under Sa growth 42C: 88
# Result for `Cc1oc(-c2cccc(Cl)c2)nc1CN1CCC(C(=O)NCCC2=CCCCC2)CC1` under Sa growth 42C second temp: 97
